CSC inhib: blocks cancer stem cells | AID 2717 | cancer stem cell-like cells viability, luminescence | inhibition, % at 7.5 µM | 1.1% of 300,000 active;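 active means mean at 75% or more and at least half the replicates too; inconclusive means mean and replicates disagree; tested in HMLE shEcad cells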;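 further: 0% = median of negative and 100% = median of positive control wells; the first replicate is given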
eIF4H inh: inhibitors of RNA binding by human eIF4H | eIF4H fluorescence polarization binding assay | 0.94% of 290,000 active | AID 2012 | inhibition, % at 35 µM;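 active means 50% or more with normal probe brightness, or confirmed in later tests; inconclusive means above 50% with abnormal brightness, or retests that disagree; inactive means below 50% or failed in later tests; about a fifth of its hits are not listed in these tables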;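 further: calls also rest on retests at 20 µM and on dose response follow-up; 0% = protein and probe with vehicle and 100% = probe without protein; strong numbers were not always called active; many hits fall short of the cut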
Yeast UUG start: alters start codon recognition fidelity in yeast | 0.13% of 350,000 active | AID 602363 | S. cerevisiae UUG-firefly luciferase reporter, luminescence/redox ratio | activity score, % at 18.7 µM;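 active means replicate mean at a twofold rise or more, about +100% in these data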;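 further: firefly luciferase made from a UUG start codon reports start codon fidelity; reporter light over untreated wells divided by growth signal over untreated wells; some hits fall short of that in this replicate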
Rce1 inh: blocks yeast Ras-converting enzyme. calls only. 0.27% of 290,000 active. yeast membranes, quenched prenylated peptide cleavage fluorescence. Q03530. AID 2563;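 active means fall in fluorescence gain of 50% or more versus controls, with final raw signal at or below 3038400; inconclusive means same 50% fall but final raw signal above 3038400; inactive means fall in fluorescence gain under 50%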;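 further: plate controls were neutral control wells for no effect and wells lacking membranes for full effect; tested at 10 µM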
MT1-MMP act inh: inhibitors of human MT1-MMP activation; HT1080 RFP-PRO-GFP cells, GFP/RFP ratio fluorescence, overnight; percent of plate control window, DMSO zero; P50281; 0.061% of 360,000 active; GFP/RFP ratio change, % at 20 µM;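 active means GFP/RFP ratio change of at least 30% with cell ATP level not reduced by more than half and red fluorescence within 50% of control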; further: strong numbers were not always called active
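Assay system: HT1080 RFP-PRO-GFP cells. Benchmarks: DMSO vehicle wells and RFP-L50D-GFP reporter cell wells. Times: overnight cell settling, then overnight compound exposure, 37 °C, 5% CO2. Compound: 20 µM single dose, 1% DMSO. Read-out basis: GFP/RFP fluorescence ratio.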
HIV Env fusion: blocks HIV Env-driven cell-cell fusion. HeLa-JRFL Env/CEM21 cell fusion, luciferase. inhibition, % at 12.3 µM. 1.1% of 360,000 active. AID 651610;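 active means mean replicate inhibition score of at least 50 and every replicate individually at or above 50; inconclusive means only one of the two criteria met; inactive means mean below 50 and not all replicates reaching 50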;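 further: 0% = plate neutral controls and 100% = maraviroc near 300 nM; one replicate is shown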
PABP polyA inh: PABP-poly(A) binding inhibition | inhibition, % at 35 µM | PABP-poly(A) RNA binding, fluorescence polarization | 1% of 290,000 active | P11940 | AID 2014;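 active means 50% or more with normal probe brightness, or confirmed in later tests; inconclusive means above 50% with abnormal brightness, or retests that disagree; inactive means below 50% or failed in later tests; about a fifth of its hits are not listed in these tables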;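 further: calls also rest on retests at 20 µM and on dose response follow-up; controls were probe without protein and protein plus probe with vehicle; some compounds called inactive have numbers as strong as hits; many hits fall short of the cut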
Target sequence (P11940 whole entry, looked up): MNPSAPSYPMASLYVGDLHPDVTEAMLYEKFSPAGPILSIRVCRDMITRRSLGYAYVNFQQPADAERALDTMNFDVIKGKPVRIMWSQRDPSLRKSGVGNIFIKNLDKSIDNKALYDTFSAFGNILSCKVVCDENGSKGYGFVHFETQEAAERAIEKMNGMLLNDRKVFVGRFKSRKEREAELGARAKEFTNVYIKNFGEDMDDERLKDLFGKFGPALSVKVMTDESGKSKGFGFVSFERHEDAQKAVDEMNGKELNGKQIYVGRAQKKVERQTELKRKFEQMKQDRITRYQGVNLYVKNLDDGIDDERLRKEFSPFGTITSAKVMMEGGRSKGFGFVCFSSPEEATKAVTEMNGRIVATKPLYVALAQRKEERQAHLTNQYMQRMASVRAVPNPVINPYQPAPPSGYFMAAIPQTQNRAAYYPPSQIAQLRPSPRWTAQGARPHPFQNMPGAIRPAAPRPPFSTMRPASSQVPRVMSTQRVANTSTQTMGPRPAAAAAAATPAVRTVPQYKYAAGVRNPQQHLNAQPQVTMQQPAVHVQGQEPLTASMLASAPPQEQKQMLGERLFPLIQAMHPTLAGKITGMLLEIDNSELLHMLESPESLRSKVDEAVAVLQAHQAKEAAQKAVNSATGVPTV
eIF4H inh retest: also measured in eIF4H inh; calls as there; inhibition, %; compound at 20 µM; confirmation average;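 mean of two retest wells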
PABP polyA inh retest: further read-out of PABP polyA inh, marked with its call; inhibition, %; compound at 20 µM; confirmation repeats;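 mean of two retest wells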
MT1-MMP act inh RFP: further read-out of MT1-MMP act inh, marked with its call; RFP signal change, %; measured here: RFP expression control read;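 0 = vehicle wells; hits needed this value within 50% of zero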
* = called active by the depositor; i = inactive; ? = inconclusive; . = no result given; + = active, no number. An excerpt. The share of hits here may be higher or lower than overall.

SMILES | CSC inhib | eIF4H inh | Yeast UUG start | Rce1 inh | MT1-MMP act inh | MT1-MMP act inh RFP | HIV Env fusion | PABP polyA inh | others
Cc1cccc(NC(=O)CSc2nc3ccccc3c(=O)n2CC2CCCO2)c1 (stereo not drawn) | 25 | . | -3 | . | -2 | 0 | . | .
COc1cc(NC(=O)CN(C)Cc2cccc(F)c2)c(C)cc1[N+](=O)[O-] | 10 | -1 | . | i | 3 | -7 | -22 | 5
Cc1ccnc(SCC(=O)N2CCC(C(N)=O)CC2)n1 | -11 | -11 | -13 | i | 0 | 1 | 2 | -1
O=C(CCC(=O)N1CCN(S(=O)(=O)c2cccc(F)c2)CC1)c1cccs1 | -5 | 1 | -10 | i | -7 | 0 | -2 | ?
FC(F)(F)c1cccc(CN2CCCCCC2)c1 | -12 | 3 | -28 | i | 1 | 2 | -32 | 4
COc1ccc(C(=O)Nc2sc3c(c2C(=O)NCc2ccco2)CCCC3)cc1OC | -3 | 2 | 1 | i | 4 | -1 | -30 | 5
Cc1ccc(C)c(-c2csc(NC(=O)C3=COCCO3)n2)c1 | . | . | . | i | -1 | -9 | 35 | .
O=C(COc1ccc(S(=O)(=O)NC2CCCCC2)cc1Cl)NCc1cccnc1 | . | -4 | 0 | i | 1 | -5 | . | -6
FC(F)(F)c1ccc(/C=N/N2CCN(Cc3cccc4ccccc34)CC2)cc1 | 38 | -4 | -8 | i | 1 | -4 | -16 | -6
CC1CCN(S(=O)(=O)c2cc3c4c(c2)CCN4C(=O)CC3)CC1 | -6 | . | 1 | i | 3 | 3 | -14 | .
CC(NS(=O)(=O)c1cccc(C(=O)O)c1)C12CC3CC(CC(C3)C1)C2 (stereo not drawn) | . | . | -18 | . | -4 | -6 | -17 | .
CC(=O)Nc1ccc(NC(=O)C2CCCN2C(=O)NC2CCCCC2)cc1 (stereo not drawn) | -10 | -9 | -2 | i | 1 | 4 | -6 | 7
CC1CCN(C(=O)CSCC(=O)O)CC1 | -16 | -6 | . | i | 1 | 1 | -2 | -8
CCN(CC)Cc1c(O)ccc2occ(C(=O)c3ccccc3)c12 | -8 | -9 | -3 | i | 6 | 2 | -9 | -2
CCCCn1c(SC(C)C(=O)c2ccc(OC)cc2)nc2cc(S(N)(=O)=O)ccc21 (stereo not drawn) | -9 | 5 | -22 | i | -4 | -3 | . | 1
O=C(CCc1ccccc1)NNc1ccc(F)cc1 | 24 | 0 | . | i | 3 | 0 | 7 | 9
Cc1ccccc1N1CCN(C2CCCN(C(=O)CCC(F)(F)F)C2)CC1 (stereo not drawn) | -6 | 6 | -11 | i | -3 | 2 | -4 | 6
N#Cc1c(OCC(=O)c2ccccc2)nc2c(c1-c1ccco1)CCc1ccccc1-2 | 15 | 70 | -12 | + | -7 | -2 | -61 | -11 | eIF4H inh retest=10;PABP polyA inh retest=14
COc1ccc(S(=O)(=O)Oc2ccc3cccc(N)c3c2)cc1 | 13 | . | -19 | i | 8 | -3 | 4 | .
Brc1cccc(-c2nc3c4ccccc4ccn3c2Cc2ccccc2)c1 | . | . | -17 | . | 0 | -1 | 29 | .
Oc1ccc2ccccc2c1C=NC1CCCCC1 | 0 | -16 | . | i | 2 | 15 | 11 | 6
C=C(C)CNC(=S)N/N=C(\C)c1ccc(OC)cc1 | 13 | -10 | -25 | i | 1 | -4 | -2 | -8
COc1ccc(CCN2CC(C(=O)Nc3nccs3)CC2=O)cc1OC (stereo not drawn) | -19 | . | -11 | . | 1 | 2 | . | .
COc1ccc(/C(C)=N/NC(=O)Cc2c(C)nc(C)[nH]c2=O)cc1 | 3 | -4 | . | i | 4 | 4 | -12 | 28
CCN(CC)C(=O)CSc1nnc(-c2cccs2)n1Cc1ccco1 | -12 | 4 | -4 | i | -1 | 0 | . | 0
O=C(CCS(=O)(=O)Cc1ccccc1F)NCCc1ccc(Cl)cc1 | -8 | 1 | -6 | i | -2 | -2 | 3 | 8
N#Cc1ccc(NC(=O)COC(=O)CCc2nc3ccccc3c(=O)[nH]2)cc1 | -18 | 3 | -14 | i | -1 | 2 | -6 | 1
COc1ccc(/C=C/CN2CCN(Cc3ccc(C)cc3)C(CCO)C2)cc1 (stereo not drawn) | 7 | 3 | . | i | 2 | 1 | 19 | -5
O=C(NCC1CCN(Cc2cccc(Cl)c2)CC1)Nc1ccc(Cl)cc1 | 9 | -4 | -6 | i | 2 | -6 | 13 | -12
C=CC(C)(C)c1cc2cc3ccoc3cc2oc1=O | 15 | -12 | -23 | i | -2 | 0 | -7 | 11
Cc1nc(N2CCN(c3ccccc3)CC2)[nH]c(=O)c1Cc1cccc2ccccc12 | -5 | 8 | . | i | . | . | . | 1
CCCOC(=O)Nc1nnc(CCC)s1 | 0 | -5 | -5 | i | -5 | -4 | -31 | 5
O=C(C[n+]1ccccc1)Nc1ccccc1Br | -9 | -10 | . | i | -1 | 2 | 1 | 3
Cc1ccc(-c2nc3ccccc3o2)cc1NC(=S)NC(=O)c1cc2ccccc2o1 | 20 | -9 | . | i | -3 | -2 | -25 | 3
O=C(COC(=O)c1cc(=O)[nH]c2ccccc12)NCCc1ccccc1 | -12 | . | -14 | . | 1 | 4 | 8 | .
COC(CNC(=O)c1c[nH]c2ccc(S(=O)(=O)N3CCC4(CC3)OCCO4)cc2c1=O)OC | 12 | 2 | -11 | i | -6 | -1 | -64 | 3
COc1cccc(CCNC(=O)COc2cccc3c2OC(C)(C)C3)c1 | -18 | . | -13 | i | 3 | -2 | 6 | .
COc1ccc(CNc2ncc(-c3ccc(Cl)cc3)n2C)c(OC)c1OC | 5 | 3 | -15 | i | -1 | 1 | 6 | -5
O=S(=O)(Cc1ccccc1)N1CCc2ccccc2C1 | -7 | -8 | 3 | i | 0 | 2 | 10 | -3
Cc1ccc2[nH]c(=O)c(C(c3nnnn3CCc3ccccc3)N3CCOCC3)cc2c1 (stereo not drawn) | -2 | 5 | -19 | i | -12 | -4 | 22 | -3

The final 2 entries of the part above come first, to join the parts:
SMILES | CSC inhib | eIF4H inh | Yeast UUG start | Rce1 inh | MT1-MMP act inh | MT1-MMP act inh RFP | HIV Env fusion | PABP polyA inh | others
O=S(=O)(Cc1ccccc1)N1CCc2ccccc2C1 | -7 | -8 | 3 | i | 0 | 2 | 10 | -3
Cc1ccc2[nH]c(=O)c(C(c3nnnn3CCc3ccccc3)N3CCOCC3)cc2c1 (stereo not drawn) | -2 | 5 | -19 | i | -12 | -4 | 22 | -3
O=C(O)CSCC(=O)NCc1ccccc1Cl | -4 | 2 | . | i | 6 | 2 | 1 | 18
Cc1ccc(NC(=O)Cc2ccccc2Cl)cc1S(=O)(=O)N(C)C | -14 | -8 | . | i | -3 | -10 | . | 11
CC(=O)OCCCN1c2ccccc2Nc2nnc(-c3ccccc3)cc21 | 13 | -8 | -3 | i | 1 | -3 | . | -4
COc1cccc(/C=C2\SC(=S)N(C(C)C(=O)NC3C=CS(=O)(=O)C3)C2=O)c1 (stereo not drawn) | 7 | 4 | 0 | i | -2 | -4 | -2 | 1
Cc1cc(C)nc(NS(=O)(=O)c2ccc(NC(=O)CSc3ncn[nH]3)cc2)n1 | 7 | 1 | . | i | -3 | -1 | 7 | 4
Cc1ccc(CNC(=O)c2cc3ccccc3oc2=O)cc1 | 0 | . | . | i | 2 | 2 | -10 | .
COc1ccc(CCNS(=O)(=O)c2ccc(Cl)cc2)cc1OC | -5 | 1 | -14 | i | 6 | 0 | -5 | 3
CCOc1ccc2oc(C(=O)NC3CCN(Cc4ccccc4)CC3)c(C)c2c1 | 13 | -4 | -6 | i | 5 | -3 | 12 | -6
CCOCCCNc1c(CC)c(C)c(C#N)c2nc3ccccc3n12 | -2 | -4 | -15 | i | 2 | -2 | -13 | 7
O=C(COc1ccccc1)N1CCN(C(=O)c2ccccc2F)CC1 | . | 5 | -3 | i | -1 | 2 | 20 | 8
COC(=O)CC(=O)CSc1nc2c(cc1C#N)CCCCC2 | -1 | 9 | . | . | -6 | 1 | -104 | 8
O=C(CSc1nnc(CNC(=O)c2ccco2)o1)NC1CCCC1 | 0 | 6 | -5 | i | -7 | 10 | -34 | 4
Cc1cc(C(=O)Nc2ccc(CC(=O)O)cc2)c(C)o1 | -8 | 11 | -20 | i | 1 | 3 | 23 | 10
CCCCC(=O)N(C)c1c(CC)nc2c(OCC(=O)N(C)C)cccn12 | . | . | -29 | . | -3 | 5 | 6 | .
O=C(CN1CC(=O)Oc2ccccc21)OCC(=O)c1ccc(Br)cc1 | -8 | . | -20 | i | -1 | 2 | -1 | .
Cc1ccc(S(=O)(=O)/N=S(/c2ccccc2)C(C)C)cc1 (stereo not drawn) | -10 | 2 | . | i | 1 | 2 | -2 | 4
Cc1cccc(N2CCN(S(=O)(=O)c3ccc4c(c3)CCCN4C(=O)C3CCC3)CC2)c1C | -3 | -8 | -18 | i | 3 | -2 | 1 | -2
O=C(c1ccco1)c1cn(CC(=O)N2CCCc3ccccc32)c2ccccc12 | 0 | 0 | . | i | -2 | -8 | . | 5
CCN(CC)CCn1c(C)nc2c(sc3nc4c(cc32)COC(C)(C)C4)c1=O | -6 | -6 | . | i | . | . | . | 3
Cc1ccc(C(=O)Nc2nnc(-c3cccs3)s2)cc1C | -7 | -3 | . | i | 2 | 2 | . | 5
CCn1cc(C(=O)OCC(=O)NCc2ccccc2Cl)c(=O)c2ccc(C)nc21 | -2 | 25 | . | i | 4 | 7 | 2 | 2
COc1ccc(C(=O)N/C(=C\c2cccc3ccccc23)C(=O)NCCc2c[nH]c3ccccc23)cc1OC | 0 | -3 | -19 | i | -5 | -6 | . | 6
CCOCCCn1c(SCc2nc3ccccc3s2)nc2ccccc2c1=O | 18 | -7 | . | i | -7 | -15 | ? | 5
CC(=O)Nc1cccc(-c2ccnc3c2CC(C(=O)NCc2ccc(N4CCN(C)CC4)cc2)O3)c1 (stereo not drawn) | . | . | -11 | . | -1 | -4 | 2 | .
CCCCNC(=S)NCCN1CCN(C(=S)NCCCC)CC1 | -11 | -8 | -32 | i | 3 | -1 | -5 | -1
COc1cc(C(=O)N(C(C)C)C2CCCCC2)cc(OC)c1OC | . | . | -1 | . | 0 | -5 | 4 | .
CCCCOc1ccc(NC(=O)CCSc2nccn2C)cc1 | 10 | 0 | . | i | 7 | -10 | 13 | 8
CCOC(=O)n1c2ccccc2c(=O)n1CCO | . | . | -20 | . | 5 | 3 | -36 | .
Nc1ccn(Cc2ccccc2)n1 | -2 | -9 | . | i | 0 | 1 | 5 | 8
Cc1ccc(Nc2nnc(SCC(=O)Nc3cccc(S(=O)(=O)NC4=NCCCCC4)c3)s2)cc1 | 7 | 7 | 2 | i | -2 | -1 | -27 | 9
COc1cc(C(C)=O)ccc1OCC(O)CN1CCN(c2c(C)cccc2C)CC1 (stereo not drawn) | 10 | -3 | 12 | . | 1 | 0 | 31 | 2
CC(=N\Nc1ccc(Cl)cc1)/C(=N/O)C(=O)Nc1ccccc1 | 6 | 9 | 5 | i | -3 | 1 | . | 9
C1=C(C(c2nnnn2C2CCCCC2)N2CCCCC2)COc2ccccc21 (stereo not drawn) | -5 | -10 | -12 | i | -7 | -2 | . | -8
CCN(CC)S(=O)(=O)c1cc(C(=O)Nc2cc(S(=O)(=O)N3CCOCC3)ccc2N2CCN(C)CC2)ccc1C | . | . | 13 | . | -2 | 3 | 7 | .

Source: PubChem BioAssay (several laboratories)
